VDR inhibitor = blocks the human vitamin D receptor. P11473. VDR-SRC2-3 peptide fluorescence polarization, 2 h. Potency, µM, inactives show max response, negative = inhibition, most hits filed as inhibitors. 0.93% of 400,000 active; active means well fitted inhibition curve with a large enough effect; inconclusive means small, poorly fitted or top-dose-only effect, or another doubt; inactive means no such curve, though single readings can be large or run the other way; further: series mostly up to about 120 µM
Target sequence (P11473 whole entry, looked up): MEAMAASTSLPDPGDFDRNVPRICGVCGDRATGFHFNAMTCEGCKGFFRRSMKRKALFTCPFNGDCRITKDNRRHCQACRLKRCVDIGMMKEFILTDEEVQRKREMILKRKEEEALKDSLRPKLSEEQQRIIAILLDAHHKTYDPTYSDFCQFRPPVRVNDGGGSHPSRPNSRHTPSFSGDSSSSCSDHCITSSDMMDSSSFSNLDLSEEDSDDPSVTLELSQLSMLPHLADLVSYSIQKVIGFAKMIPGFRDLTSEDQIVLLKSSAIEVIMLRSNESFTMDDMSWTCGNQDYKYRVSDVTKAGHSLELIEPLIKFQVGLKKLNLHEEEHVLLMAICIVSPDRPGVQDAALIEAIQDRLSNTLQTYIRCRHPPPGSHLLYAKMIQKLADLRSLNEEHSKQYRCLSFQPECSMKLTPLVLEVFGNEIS
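The screen uses fluorescence polarization to detect compounds that interfere with recruitment of the SRC2-3 coactivator peptide to VDR; plates are read after 2 h at room temperature.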
* marks the source's active call; other numbers are inactive results; ? = inconclusive. On the % scale 0 is the no-effect control and ±100 the full control effect; potency means the concentration at half of the fitted maximal effect.

| Compound | VDR inhibitor |
| --- | --- |
| CCCCc1cc(=O)oc2cc(C)c3c(C(C)(C)C)coc3c12 | 6% |
| COc1ccccc1N1CCN(c2ncnc3c2cnn3-c2cc(Cl)ccc2C)CC1 | 7% |
| COc1ccc(C(=O)NNC2=NC(C)(C)Cc3ccccc32)cc1 | -3% |
| Cn1nccc1C(=O)Nc1ccc2c(c1)OCCO2 | -6% |
| CCOC(=O)c1cc2cc3ccccc3cc2[nH]1 | 2% |
| O=C(CCC1CCCCC1)NCCN1CCOCC1 | 1% |
| Cc1ccc(NC(=O)CSc2nnc(NC(=O)CN3CCOCC3)s2)cc1 | 27% |
| CCOc1ccc(C(=O)NNC(=O)CCNC(=O)c2ccc(Br)cc2)cc1OC | 2% |
| Nc1cc(=O)[nH]n1C1CCCCC1 | 8% |
| CCOC(=O)CN1C(=O)Nc2ccc(Br)cc2C1c1ccccc1 (stereo not drawn) | 8% |
| COc1ccc(C(=O)N2CC3(C)CC2CC(C)(C)C3)cc1 (stereo not drawn) | 7% |
| CCCCOC(=O)Nc1ccc(C(=O)OCCC)cc1 | 23% |
| CCN(CC)S(=O)(=O)c1cc(OC)c(Cl)cc1Cl | -15% |
| Cc1ccnc(NC(c2ccncc2)c2c(C)[nH]c3ccccc23)c1 (stereo not drawn) | -11% |
| O=C(CCC1CCCC1)N=C1SC2CS(=O)(=O)CC2N1Cc1ccccc1 (stereo not drawn) | -2% |
| COc1ccc(N2C(=O)C(CC(=O)Nc3ccccc3)N(Cc3ccc4c(c3)OCO4)C2=O)cc1 (stereo not drawn) | 1% |
| CCOC(=O)/C(C#N)=C\c1ccc(CC)s1 | -11% |
| Cc1noc(C)c1C(=O)N1CCC2(CC1)CCN(c1ncccn1)CC2 | 4% |
| Cn1c(NCc2ccccc2O)nc2ccccc21 | -1% |
| O=C1CC(O)(C(F)(F)F)Oc2c1ccc1ccccc21 (stereo not drawn) | 7% |
| Cc1cc(C)c(NC(=O)C2CCN(c3nc4ccccc4n4cccc34)CC2)c(C)c1 | -6% |
| CCOc1ccc(Br)cc1S(=O)(=O)Nc1cccc(S(=O)(=O)NC2=NCCC2)c1 | 0% |
| COC(=O)c1sc(NC(=O)COC(=O)C2CCC2)c(C(=O)OC)c1C | -15% |
| O=C(CCCOc1ccccc1)n1nnc2ccccc21 | -4% |
| C#CC(CC)(CC)NC(=O)c1c(C)noc1C | -2% |
| CCOc1ncccc1C(=O)Nc1ccc(-c2cn3ccsc3n2)cc1 | 1% |
| CC12CCC=CC1C(c1ccc3ccccc3c1)N(Cc1ccccc1)C2=O (stereo not drawn) | ? |
| COC(=O)c1c(NC(=O)c2ccoc2C)sc(C)c1C | 14% |
| CCCCn1nnnc1SCC(=O)Nc1ccc(N(C)C)cc1 | -14% |
| CCN1CCN(C(=O)CS(=O)(=O)Cc2nc(-c3ccc(C)cc3)oc2C)CC1 | -24% |

Part of the list above, as labelled records:
CCOc1ncccc1C(=O)Nc1ccc(-c2cn3ccsc3n2)cc1
  VDR inhibitor = 1%
CC12CCC=CC1C(c1ccc3ccccc3c1)N(Cc1ccccc1)C2=O (stereo not drawn)
  VDR inhibitor = ?

(listing goes on)
| Compound | VDR inhibitor |
| --- | --- |
| Cc1cc(C)nc(N2CCC(C(=O)NC3CC3)CC2)n1 | 9% |
| COc1cc(C2C(Oc3ccccc3C)C(=O)N2Cc2ccc(F)cc2)cc(OC)c1OC (stereo not drawn) | -17% |
| C=CCSc1n[nH]c(-c2ccc(OCCC)cc2)n1 | 1% |
| COc1cc(CCC(=O)OCn2nnc3ccccc3c2=O)cc(OC)c1OC | -8% |
| Cc1ccc(S(=O)(=O)NC(=O)Nc2cc(C)no2)cc1 | -5% |
| COc1ccc(C)cc1N(CC(=O)N1CCCC1)S(C)(=O)=O | -6% |
| CSCCC(NC(=O)c1ccccc1)C(=O)N(C)CC(=O)Nc1ccc(N2CCOCC2)cc1 (stereo not drawn) | -17% |
| Oc1c(Cl)cc(Cl)cc1CNc1ccccn1 | 2% |
| CCOc1nc(-c2ccccc2)ccc1-c1noc(-c2ccco2)n1 | 2% |
| Cc1oc(-c2ccccc2Cl)nc1Cn1c(SCc2cccc(F)c2)nc2cccnc21 | 0% |
| O=C(O)CCC[C@H](O)\C=C/C=C/C=C/[C@H](O)C/C=C\CCCCCO | 8% |
| COc1ccc(-n2cc(-c3ccccc3)c3c(N4CCN(CCO)CC4)ncnc32)cc1 | -6% |
| CCOc1ccccc1OCC(=O)NC1CCCCC1 | -2% |
| O=C(CCCn1c(=O)c2ccccc2n(CC(=O)Nc2cccc(Cl)c2)c1=O)NCc1ccc2c(c1)OCO2 | -5% |
| O=C(c1ccccc1)N1CCN(C(=O)N2CCOCC2)CC1 | -7% |
| CCOc1ccc(S(=O)(=O)N2CCCC(C(=O)N3CCOCC3)C2)cc1Cl (stereo not drawn) | -13% |
| CCNC(=O)Cn1c(=O)c2c(ncn2Cc2ccccc2)n(Cc2ccccc2)c1=O | 1% |
| C=CCOc1ccc(/C=N/NC(=O)CN(c2cc(Cl)ccc2OC)S(=O)(=O)c2ccc(C)c([N+](=O)[O-])c2)cc1 | -7% |
| O=C(N/N=C/c1c(F)c(F)c(F)c(F)c1F)c1cccc(S(=O)(=O)N2CCOCC2)c1 | -9% |
| CC(C)CN(C(=O)CN1CCc2ccccc21)c1c(N)n(CC(C)C)c(=O)[nH]c1=O | -30% |
| NC(=O)COC(=O)c1ccc(NS(=O)(=O)c2ccc3c(c2)OCCO3)cc1 | 7% |
| COc1ccc(C(=O)N(C)CC(=O)Nc2cccc(F)c2)cc1S(=O)(=O)NC1CCCC1 | -7% |
| COc1cc(C(=O)NC(C)c2cc(C)ccc2C)ccc1OCC(=O)N1CCOCC1 (stereo not drawn) | -12% |
| Cc1nc2nc(SCC(=O)c3ccccc3)[nH]c2cc1Br | -5% |
| CC[C@H](C)[C@H](NC(=O)[C@H](Cc1ccc(O)cc1)NC(=O)[C@@H](NC(=O)[C@H](CCCNC(=N)N)NC(=O)[C@@H](N)CC(=O)O)C(C)C)C(=O)N[C@@H](Cc1cnc[nH]1)C(=O)N1CCC[C@H]1C(=O)N[C@@H](Cc1ccccc1)C(=O)N[C@@H](Cc1cnc[nH]1)C(=O)N[C@@H](CC(C)C)C(=O)N[C@@H](CC(C)C)C(=O)N[C@H](C(=O)N[C@@H](Cc1ccc(O)cc1)C(=O)N[C@@H](CO)C(=O)O)C(C)C | 1% |
| COc1ccc(NC(=O)c2c(NC(=O)COc3ccc(Cl)cc3)sc3c2CCCCC3)cc1 | -9% |
| Clc1cccc(CN2CCCCCC2)c1Cl | 9% |
| Nc1cc(=O)nc(SCC(=O)Nc2ccc(F)cc2)n1-c1cccc(Cl)c1 | 8% |
| COc1ccc(Nc2n[nH]c(N)c2C(N)=O)cc1 | -21% |
| O=C(NCC1CCCO1)C(c1cccs1)N(Cc1ccccc1Cl)C(=O)c1ccc(-c2ccccc2)[nH]1 (stereo not drawn) | 2% |

Structures listed so far with a thiophene ring, fused or not:
| Compound | VDR inhibitor |
| --- | --- |
| CCOC(=O)/C(C#N)=C\c1ccc(CC)s1 | -11% |
| COC(=O)c1sc(NC(=O)COC(=O)C2CCC2)c(C(=O)OC)c1C | -15% |
| COC(=O)c1c(NC(=O)c2ccoc2C)sc(C)c1C | 14% |
| COc1ccc(NC(=O)c2c(NC(=O)COc3ccc(Cl)cc3)sc3c2CCCCC3)cc1 | -9% |
| O=C(NCC1CCCO1)C(c1cccs1)N(Cc1ccccc1Cl)C(=O)c1ccc(-c2ccccc2)[nH]1 (stereo not drawn) | 2% |

Going on with the list:
| Compound | VDR inhibitor |
| --- | --- |
| CC1CC2(C)C(=CC1=O)CCC1C2C(O)CC2(C)C1CCC2(O)C(=O)CO (stereo not drawn) | 15% |
| CCC(=O)Nc1ccc(NC(=O)CSc2nnnn2C(C)C)cc1 | -18% |
| CCNc1nc(SC(C)C(=O)OC)nc(N(C)C)n1 (stereo not drawn) | 10% |
| O=C1CCC(C(=O)N2CCCCCC2)CN1Cc1cccc(C(F)(F)F)c1 (stereo not drawn) | 1% |
| Cc1ccc(C2NC(c3ccc(C)cc3)C([N+](=O)[O-])C(C)(C)C2[N+](=O)[O-])cc1 (stereo not drawn) | -8% |
| COc1ccc(C(=O)n2nc(C#N)c(C#N)c2N)cc1 | -23% |
| Nc1ncc(Br)cc1S(=O)(=O)Nc1cc(C(F)(F)F)cc(C(F)(F)F)c1 | ? |
| COc1ccc(C2/C=C\CN(Cc3ccccc3)CC(=O)N2Cc2ccc(F)cc2)cc1 (stereo not drawn) | -25% |
| COc1ccccc1N(CC(=O)Nc1ccccc1C(=O)NCC(C)C)S(C)(=O)=O | -1% |
| CCCn1nnc(NC(=O)c2ccccc2Cl)n1 | -7% |
| O=C(CSc1nnc(-c2ccc(Br)cc2)o1)Nc1cccc(C(=O)O)c1 | 4% |
| CC(=O)Oc1c2c(c3c(c1CC=C(C)C)O[C@@]14C(=CC5CC1C(C)(C)OC4(C/C=C(\C)C(=O)O)C5=O)C3=O)OC(C)(CCC=C(C)C)C=C2 (stereo partly drawn) | 3.2µM* |
| Cn1c(=O)c2c(-c3ccccc3)n(Cc3ccccn3)cc2n(C)c1=O | -14% |
| O=C(c1ccccc1)c1c[nH]c(C(=O)NNc2cccc(Cl)n2)c1 | 1% |
| Cc1ccccc1C(=O)N1CCCCC1CCN1CCCCC1 (stereo not drawn) | 4% |
| O=C(Nc1cc(S(=O)(=O)N2CCCCCC2)ccc1OCC(F)(F)F)c1ccc(=O)[nH]c1 | 0% |
| COCCNC(=O)CN(C(=O)Cn1nnc2ccccc21)c1ccc(C)cc1 | -5% |
| CC(C)[C@@H](C(=O)O)N(Cc1cccc(CN([C@H](C(=O)O)C(C)C)S(C)(=O)=O)c1)S(C)(=O)=O | 8% |
| O=C(COC(=O)c1ccc(O)cc1)c1ccc2c(c1)OCCO2 | -16% |
| Cc1ccc2nc(-c3ccc(Br)cc3)cn2c1 | 11% |
| NC(=O)NOCc1c(Cl)cccc1Cl | 14% |
| Cc1ccc(S(=O)(=O)CCC(O)c2ccc(Cl)cc2)cc1 (stereo not drawn) | -10% |
| O=C(CSc1nc(O)cc(=O)[nH]1)N1CCCc2ccccc21 | -20% |
| Cc1cc(OCC(=O)OCC(=O)Nc2ccc(Cl)cn2)ccc1Cl | 9% |
| Cc1c(C(=O)Nc2cccc(S(=O)(=O)N3CCOCC3)c2)oc2ccccc12 | -15% |
| CCOC(=O)C1CCN(C(=O)COC(=O)c2nc3nc(C)cc(C)n3n2)CC1 | -4% |
| Cc1cc(C)c(C)c(S(=O)(=O)NCc2ccncc2)c1C | 3% |
| COc1cc(N)c(Cl)cc1C(=O)OCC(=O)N(C)C1CCCCC1 | -8% |
| COc1ccc(Cl)cc1N(CC(=O)Nc1cccc(SC)c1)S(C)(=O)=O | -16% |
| COCc1cc(C)n(CC(=O)N2CCCC2)c(=O)c1C#N | -5% |
| Cc1nc2cc(NC(=O)NCc3ccco3)ccc2n1C | 8% |
| CC1(C)CC(=O)C(N=Nc2c(F)cccc2F)=C(O)C1 | 6% |
| Cc1cccc(OCCC(=O)OCC(=O)Nc2c(C)nn(-c3ccccc3)c2C)c1 | -6% |
| CCc1nn(CC(=O)N2CCN(CC)CC2)c(=O)c2cc3sccc3n12 | -14% |
| Cc1ccc(/C=C2/C(=N)N3N=C(CC(=O)N4CCCC4)SC3=NC2=O)cc1 | 15% |
| CCc1ccccc1NC(=O)COC(=O)C1C2CC3OC(=O)C1C3C2 (stereo not drawn) | -11% |
| Cc1ccc(-c2nnc(SCC(=O)N/N=C/c3ccccc3C(=O)O)n2-c2ccc(C)cc2)cc1 | 28% |
| Cc1c(/C=N/NC(=O)c2ccc(Br)o2)cnn1C | 3% |
| CC(C)CN1C(=O)c2ccc(C(=O)Nc3ccc(OCC(=O)O)cc3)cc2C1=O | -1% |
| CC1(C2CC2)NC(=O)N(CC(=O)NCc2ccc(Cl)cc2Cl)C1=O (stereo not drawn) | 4% |
| CCCCCN=Cc1c(C)[nH]n(-c2nc3ccccc3s2)c1=O | -10% |
| COc1ccc(CN2CCN(c3ncccn3)CC2)c(C)c1C | -7% |
| COc1ccccc1NCCC(=O)OCC(=O)Nc1cccc(S(=O)(=O)N(C)C)c1 | -3% |
| C/C(=N\OCC(=O)Nn1c(C)nc2ccccc2c1=O)c1cccs1 | -8% |
| O=C(CN1CCN(Cc2ccccc2Cl)CC1)N=Nc1c(O)[nH]c2ccccc12 | -10% |
| Cc1ccc(C(C(=O)NC2CCCC2)N2CCc3ccccc32)cc1 (stereo not drawn) | -14% |
| CCC(C)/C(C)=N/NC(=O)c1ccc(CSc2nc3ccccc3s2)cc1 (stereo not drawn) | -17% |
| O=C(Nc1ccccc1)c1ccc(NCC2CCCO2)c([N+](=O)[O-])c1 (stereo not drawn) | -8% |
| O=C(COC(=O)CCc1ccccc1)Nc1ccccc1OC(F)F | -9% |
| CCCc1nnc(SCC(=O)N2CCOCC2)n1CC1CCCO1 (stereo not drawn) | -1% |
| CCOC(=O)CSc1nc(N)c(C#N)cc1C#N | -6% |
| O=C(NC1CCCCC1)c1ccc(-c2ccc(Cl)cc2)o1 | -8% |
| Cc1cccc(NC(=O)N(Cc2cc3cc(C)cc(C)c3[nH]c2=O)CC2COCCO2)c1 (stereo not drawn) | -4% |
| O=C(c1cccs1)N1CCC(c2nc3c(nnn3Cc3ccccc3Cl)c(=O)[nH]2)CC1 | 14% |
| CC(OC(=O)C1CC(=O)N(Cc2ccco2)C1)C(=O)Nc1ccccc1[N+](=O)[O-] (stereo not drawn) | -10% |
| COc1ccccc1-c1nnc(SCC(=O)NC2CCCCC2)o1 | ? |
| O=C(CCN1C(=O)[C@@H]2Cc3ccccc3CN2C1=O)N[C@@H](C(=O)O)c1ccccc1 | -11% |
| Cc1ccc(S(=O)(=O)N2CCc3ccccc3C2CN2C(=O)c3ccccc3C2=O)cc1 (stereo not drawn) | -20% |

A few values from the entries so far.
Value for CCOc1ncccc1C(=O)Nc1ccc(-c2cn3ccsc3n2)cc1 under VDR inhibitor: 1%
Value for Cn1c(=O)c2c(-c3ccccc3)n(Cc3ccccn3)cc2n(C)c1=O under VDR inhibitor: -14%
Value for C=CCSc1n[nH]c(-c2ccc(OCCC)cc2)n1 under VDR inhibitor: 1%

Screening results from PubChem.

Some of the compounds tested. The share of hits here may be higher or lower than overall.
